# Screens from PubChem.
# Mtb H37Rv: Confirmatory growth inhibition assay against Mycobacterium tuberculosis H37Rv, potency (AID 1949); most inactive calls were filed without a number and no value below 0 was filed; inhibition, % at 10 µg/mL, or IC50 in µg/mL where a hit was titrated; 100,000 compounds, 1.6% hits;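 active = confirmed in a dose series; inconclusive = about 50% or more but not retested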;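 note: bacteria grown 7 days with compound before Alamar blue readout; 0% = untreated bacteria and 100% = reference antibiotic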
# An asterisk follows results filed as active; i = inactive; ? = inconclusive.
entry	SMILES	Mtb H37Rv
1	CCOC(=O)C1=C2c3ccccc3CC3(CCCCC3)N2C(=O)C1=O	1%
2	COC(=O)c1ccccc1NC(=O)C1CCCN(S(=O)(=O)c2ccc(Br)cc2)C1 (stereo not drawn)	i
3	COc1ccc(CC(=O)Nc2nnc(Cc3ccc(Cl)cc3)s2)cc1OC	i
4	N#CSCC(=O)c1cccc2ccccc12	i
5	COc1ccc(/C(C#N)=C/c2ccccn2)cc1OC	i
6	CNC(=S)N1N=C(c2ccccc2)CC1c1ccccc1Cl (stereo not drawn)	i
7	O=C(COc1ccc(Cl)cc1Cl)N1CCC(c2ccccc2)C1 (stereo not drawn)	40%
8	Cc1c(OC(=O)c2ccco2)ccc2c(=O)c(-c3nc4ccccc4s3)coc12	i
9	Cc1cccc(NS(=O)(=O)c2ccc3c(c2)OCCO3)c1C	5%
10	O=C(Oc1ccc(Br)cc1Cl)c1ccccc1[N+](=O)[O-]	i
11	Cc1sc(NC(=O)C2CC2c2ccc(C(C)(C)C)cc2)c(C(N)=O)c1-c1ccc(F)cc1 (stereo not drawn)	16%
12	Cc1cc(C)cc(OCCNC(=O)CCc2ccccc2)c1	i
13	c1ccc(-c2ccccc2OCCN2CCCCC2)cc1	i
14	CN1CCN(C(=O)Nc2ccc(Cc3ccc(NC(=O)N4CCN(C)CC4)cc3)cc2)CC1	i
15	COc1cc(C(=O)Nc2ccc(Br)c(C)n2)cc(OC)c1OC	1%
16	COc1ccc(/C=C2/C(=O)NC(=O)N(CCc3ccc(F)cc3)C2=O)c(OC)c1	i
17	COC(=O)c1cc(C(=O)OC)c(C)nc1C	i
18	O=C(NCc1ccccc1)c1cc2nc(C3CC3)cc(C(F)(F)F)n2n1	4%
19	COc1cc(C2C(C#N)=C(N)N(c3cccc(Cl)c3C)C3=C2C(=O)CC(C)(C)C3)ccc1O (stereo not drawn)	i
20	COc1ccc(NC(=O)CSc2nccn2C)cc1	i
21	COc1ccc2c(Cl)c(C(=O)N3CC(C)OC(C)C3)sc2c1 (stereo not drawn)	2%
22	O=c1cc(-c2ccc(Cl)c(Cl)c2)[nH][nH]1	8%
23	Clc1ccc(Cl)c(OCCCCOc2ncnc3ccccc23)c1	29%
24	CCc1ccccc1N1CC(C(=O)O)CC1=O (stereo not drawn)	i
25	CCOc1cc(/C=C2\C(=O)NC(=O)N(c3ccc(Cl)cc3)C2=O)cc(Br)c1OCC(=O)OC	i
26	CC(C)NC(=O)C(=O)NCCN1CCN(S(=O)(=O)c2ccc(F)cc2)CC1	1%
27	COC(=O)c1cn(C(=O)c2ccc(F)cc2)c2ccccc12	i
28	Cc1nc2c(-c3ccccc3)c[nH]n2c(=O)c1Cc1ccccc1	i
29	O=[N+]([O-])c1ccc(NS(=O)(=O)N2CCCCC2)cc1	i
30	Cc1nnc(SC(=O)Cn2c3ccccc3c3ccccc32)s1	2%
31	CCCCC(=O)Nc1ccc(NC(=O)COc2ccccc2[N+](=O)[O-])cc1OC	i
32	COc1ccc(NC(=S)N2CCN(c3ccccn3)CC2)c(OC)c1	i
33	COC(=O)c1cccc(NC(=O)C2COc3ccccc3O2)c1C (stereo not drawn)	i
34	Cc1cccc(C)c1N1CCN(C(=O)c2ccc(Br)cc2)CC1	39%
35	O=C(Nc1ccccc1C(F)(F)F)C1CCN(S(=O)(=O)c2cc(Cl)ccc2Cl)CC1	i
36	COc1cc(C=O)cc(OC)c1OC(F)F	2%
37	COc1cccc(NC(=O)C23CCC(C)(C(=O)O2)C3(C)C)c1 (stereo not drawn)	i
38	CCCCNC(=O)CN(C1CCCCC1)S(C)(=O)=O	i
39	COc1cccc(C(=O)COc2cc(C)cc3oc(=O)c(Cc4ccccc4)c(C)c23)c1	i
40	O=C(CC12CC3CC(CC(C3)C1)C2)Nc1cccc(C(F)(F)F)c1	0.97µg/mL*
41	Cc1cccc(C)c1NC(=O)C(Cc1ccccc1)N1C(=O)c2ccccc2C1=O (stereo not drawn)	i
42	O=c1[nH]c(CSc2nnc(-c3ccccc3)n2-c2ccccc2)nc2ccccc12	i
43	CC(=O)Oc1ccc(NC(=O)C2CC(Cl)=CCC2C(=O)O)cc1C(=O)O (stereo not drawn)	2%
44	CC(C)Oc1ccccc1-c1nc(=S)[nH][nH]1	i
45	O=C(NC1=NCCS1)c1csc2ccccc12	19%
46	CSc1ccccc1NC(=O)CN(c1cccc(C(F)(F)F)c1)S(=O)(=O)c1ccc(C)cc1	i
47	Cc1ccc(S(=O)(=O)Nc2ccccc2C(C)C)cc1	i
48	CCn1c(SCC(=O)Nc2ccc(F)cc2)nnc1-c1ccc(Cl)cc1	i
49	O=C(c1ccccc1F)n1nnc2ccccc21	i
50	Cc1nonc1OCC12CC3CC(CC(C3)C1)C2	0%
51	CC(=O)CC(=O)NC1CCCCCCC1	i
52	CCOC(=O)C1CCCN(S(=O)(=O)N(C)C)C1 (stereo not drawn)	i
53	FC(F)(F)c1ccccc1NC(=S)Nc1cccc(Cl)c1	?
54	Cc1cc(NC(=O)CC23CC4CC(CC(C4)C2)C3)c(C)cc1I	i
55	Cc1ccccc1NS(=O)(=O)c1ccc(Cl)c(C(=O)Nc2cccc(C(=O)O)c2)c1	i
56	O=C(CN(Cc1ccc(Cl)cc1)S(=O)(=O)c1ccc(Br)cc1)N1CCCC1	i
57	CCC(=O)Nc1ccc(Br)c(C)c1C	i
58	COc1ccc(NS(=O)(=O)c2cccc(Cl)c2)cc1	i
59	C=CCCCCCCCCC(=O)Nc1ccccc1C	8.6µg/mL*
60	CCNC(=O)CC1C(=O)N(c2cccc(C)c2)C(=O)N1CCOC (stereo not drawn)	i

# Single entries from the list.
# cpd 36 in Mtb H37Rv is entered as 2%
# cpd 59 in Mtb H37Rv is entered as 8.6µg/mL*
# cpd 50 in Mtb H37Rv is entered as 0%

# Back to the main list, starting two compounds before the break.
entry	SMILES	Mtb H37Rv
59	C=CCCCCCCCCC(=O)Nc1ccccc1C	8.6µg/mL*
60	CCNC(=O)CC1C(=O)N(c2cccc(C)c2)C(=O)N1CCOC (stereo not drawn)	i
61	O=C(CN1C(=O)c2ccccc2C1=O)Nc1sc2c(c1C(=O)NCCc1ccccc1)CCC2	i
62	O=C(NC1C2CC3CC(C2)CC1C3)c1ccc(N2CCCC2)c([N+](=O)[O-])c1 (stereo not drawn)	i
63	O=C(O)CCCC(=O)Nc1ccccc1-c1ccccc1	i
64	CC(=O)c1cccc(NS(=O)(=O)c2cccs2)c1	3%
65	CC(C)CSc1nc(O)cc(=O)[nH]1	i
66	CC1=C(C(=O)Nc2ccccc2)C(c2cccs2)n2ncnc2N1 (stereo not drawn)	1%
67	O=C(Nc1ccc(I)cn1)NC1CCCCC1	40%
68	O=C(CN(c1ccc(F)cc1)S(=O)(=O)c1ccc2c(c1)OCCO2)Nc1cccc([N+](=O)[O-])c1	i
69	CCN1CCOC(CC(=O)Nc2cc(Cl)cc(Cl)c2)C1=O (stereo not drawn)	i
70	NC(=O)C1(N2CCCCC2)CCN(C2CC(=O)N(c3cccc(F)c3)C2=O)CC1 (stereo not drawn)	i
71	Cc1ccc(-n2c(SCC(=O)N3C(C)CCCC3C)nnc2-c2ccccc2)cc1 (stereo not drawn)	i
72	COc1ccc(Br)cc1/C=C/c1ccc2ccccc2n1	3%
73	CCn1cc(Br)c(C(=O)Nc2cccc(F)c2)n1	0%
74	O=C1CC(N2CCN(c3ccc(O)cc3)CC2)C(=O)N1c1ccccc1Cl (stereo not drawn)	i
75	C=CCc1cc(C)ccc1OCCN1CCN(C)CC1	i
76	COCCCNC(=O)c1cc(-c2ccccc2)nc2c(C)cc(Br)cc12	i
77	COCCOCCn1c(CCCO)nc2ccccc21	i
78	COC(=O)C1=CN(c2ccc(C)cc2)C=C(C(=O)OC)C1c1ccccc1	i
79	COc1ccc(Cl)cc1N(CC(=O)Nc1ccc(Br)cc1)S(C)(=O)=O	42%
80	Cc1cccc(CN(CC(=O)NCc2ccccn2)S(=O)(=O)c2ccc(Cl)cc2)c1	3%
81	COc1cc(CO)cc(I)c1OCc1ccccc1C#N	i
82	O=C(COc1ccc(Cl)cc1)Nc1ccc(S(=O)(=O)Nc2cccc(C(F)(F)F)c2)cc1	37%
83	CCCCC(=O)Nc1ccc(NC(=O)c2ccccc2Br)cc1OC	i
84	CC(C)(C)c1ccc(OCC(=O)NCc2ccncc2)cc1	i
85	Cc1cccc(N(CC(=O)Nc2ccc(C(C)C)cc2)S(=O)(=O)c2ccccc2)c1C	9%
86	CCOC(=O)CNC(=S)Nc1ccc([N+](=O)[O-])cc1OC	i
87	CCN1CCN(c2ccc(NC(=O)c3cc(Br)ccc3OC)cc2)CC1	9%
88	COc1ccc(C(=O)Nc2ccccc2C(=O)N2CCCCC2CCO)cc1 (stereo not drawn)	5%
89	COc1cc2c(cc1OC)CN(C(=O)CSC1=C(C#N)C(c3cccs3)C(C(=O)Nc3ccccc3)=C(C)N1)CC2 (stereo not drawn)	5%
90	CCOc1ccc2nc(SCC(=O)Nc3nc4c(C)cccc4s3)[nH]c2c1	i
91	O=C1CCCC2=C1C(c1cc(Br)ccc1OC1CCCC1)C1=C(CCCC1=O)N2	i
92	Cc1ccc(C)c(OCC(=O)Nc2cccc(C(=O)O)c2C)c1	3%
93	O=C(NCc1ccc(Cl)c(Cl)c1)c1ccco1	i
94	O=C1CC(NCCc2ccc(Cl)cc2Cl)C(=O)N1c1ccc(Cl)cc1 (stereo not drawn)	2%
95	O=S(=O)(Nc1cccnc1)c1cc(Cl)c(Cl)cc1Cl	i
96	Cc1ccc(OCCn2ccnc2)c(Cl)c1	i
97	COc1ccccc1CC(=O)Nc1ccc2ccccc2c1	i
98	CCCc1oc(C(=O)O)cc1CN(CC)CC	i
99	CCc1ccc(N(CC(=O)Nc2cc([N+](=O)[O-])ccc2OC)S(=O)(=O)c2ccccc2)cc1	6%
100	CC(=O)n1nc(-c2ccc(C)cc2)nc1N	1%
101	COc1ccc(-c2csc(Nc3cccc(C(C)=O)c3)n2)cc1OC	10%
102	CCOC(=O)Cn1cc(F)c(=O)[nH]c1=O	1%
103	Cc1ccc(C(=O)N(Cc2nc(-c3ccc(Cl)cc3)no2)C(C)C)c(C)c1	4%
104	CCOC(=O)c1c(NC(=O)CN2CCOCC2)sc(C(C)=O)c1C	i
105	CCC(C(=O)NCc1ccc(CNC(=O)C(CC)c2ccccc2)cc1)c1ccccc1 (stereo not drawn)	3%
106	O=C(COc1ccccc1)Nc1nc2ccc(S(=O)(=O)N3CCCCC3)cc2s1	i
107	CC(=O)Nc1ccc(S(=O)(=O)NC2CC3CCC2C3)cc1 (stereo not drawn)	i
108	Cc1ccccc1NC(=O)CC(O)(C(F)(F)F)C(F)(F)F	i
109	CCC(C)SCc1cc(C(=O)O)oc1C (stereo not drawn)	i
110	O=C(CCc1ccccc1)Nc1ccc(-c2nc3cc(Cl)ccc3o2)cc1	2%
111	Cc1cccc(-n2c(C)nnc2SCC(=O)Nc2cccc(Cl)c2Cl)c1	i
112	CCC(C)C(=O)Nc1cccc(C(F)(F)F)c1 (stereo not drawn)	1%
113	COC(=O)COc1ccc(S(=O)(=O)N2CCC(Cc3ccccc3)CC2)cc1	4%
114	Cc1cc(Br)c(NC(=O)c2ccccc2[N+](=O)[O-])cc1C	0%
115	CCOC(=O)c1c(NC(=O)C2CCCO2)sc2c1CCC2 (stereo not drawn)	8%
116	O=C(Cn1c(NCCO)nc2ccccc21)c1ccc(-c2ccccc2)cc1	9%
117	COc1ccc(Cl)cc1C(=O)NC(=S)Nc1ccccc1N1CCOCC1	1%
118	CC(C)(Oc1ccc(Cl)cc1)C(=O)Nc1ccc(C(N)=O)cc1	i
119	Cc1nn2c3ccccc3n(C)c2c1C(=O)CN1CCOCC1	i
120	CCOC(=O)c1ccccc1NC(=O)COc1ccccc1Br	?

# New compounds follow:
entry	SMILES	Mtb H37Rv
121	S=C(NCCc1ccccc1)NN1CCOCC1	i
122	O=C(CSc1nc(-c2ccccc2)cc(=O)[nH]1)Nc1cccc(Cl)c1Cl	i
123	CCOC(=O)C1CCN(C(=O)CN(c2ccc(OC)cc2OC)S(C)(=O)=O)CC1	i
124	O=C(Nc1cccc(Br)c1)c1ccc(CSc2ccccc2)cc1	i
125	Cn1nc(CC(=O)Nc2ccc(OC(=O)c3ccccc3)cc2)c2ccccc2c1=O	i
126	COc1ccc(CCNC(=O)Nc2cccc(C(F)(F)F)c2)cc1	i
127	COc1ccc(Cl)cc1NC(=O)C1CCN(S(=O)(=O)c2c(C)cc(C)cc2C)CC1	0%
128	CCOC(=O)C1CCN(C2=NC(=O)/C(=C\c3ccc(Cl)cc3Cl)S2)CC1	0.41µg/mL*
129	Cc1cccc(NC(=S)Nc2ccc(Br)cc2)c1	?
130	Cc1noc(NS(=O)(=O)c2ccc(NC(=O)CCC3CCCCC3)cc2)c1C	i
131	COc1cccc(OCCOc2cc(C)cc(C)c2C)c1	i
132	Cc1nnc(NC(=O)COc2ccc3c(C)cc(=O)oc3c2)s1	0%
133	COC(=O)c1ccccc1NC(=O)NNC(=O)c1ccc(Cl)s1	i
134	CCOC(=O)c1ccc(NC(=O)c2ccccc2N(Cc2ccccc2)S(C)(=O)=O)cc1	i
135	Cc1sc(NC(=O)C2CC2)c(C(N)=O)c1C	i
136	COc1ccc(C(=O)Oc2ccccc2Cl)cc1	i
137	COCCNC(=O)C(NC(=O)C1CCCCC1)C12CC3CC(CC(C3)C1)C2 (stereo not drawn)	i
138	CCOC(=O)c1ccc(NC(=S)NC(=O)c2cc(OC)c(OC)c(OC)c2)cc1	i
139	CCc1c(C)sc(NC(=O)c2cccc([N+](=O)[O-])c2)c1C#N	1%
140	O=C1CC(c2ccccc2OCc2ccccc2)c2cc3c(cc2N1)OCCO3 (stereo not drawn)	i
141	Cn1c(SCc2ccc(Cl)cc2)nnc1-c1ccncc1	i

# Some of the entries above in another layout:
[139] CCc1c(C)sc(NC(=O)c2cccc([N+](=O)[O-])c2)c1C#N
  Mtb H37Rv = 1%

[140] O=C1CC(c2ccccc2OCc2ccccc2)c2cc3c(cc2N1)OCCO3 (stereo not drawn)
  Mtb H37Rv = i

# The list is partial; count on the stated rates, not on these rows.
